Compound activity from PubChem.
PV pol inh: poliovirus RNA polymerase inhibition | poliovirus polymerase elongation, fluorescence polarization; active compounds read low | % elongation, % (compound at 16.7 µg/mL) | 150,000 compounds, 0.66% hits; in the data active means % elongation below about 90%; further: some results filed as inactive read as strong as hits
Target sequence (P03300 1749-2209 limits assumed): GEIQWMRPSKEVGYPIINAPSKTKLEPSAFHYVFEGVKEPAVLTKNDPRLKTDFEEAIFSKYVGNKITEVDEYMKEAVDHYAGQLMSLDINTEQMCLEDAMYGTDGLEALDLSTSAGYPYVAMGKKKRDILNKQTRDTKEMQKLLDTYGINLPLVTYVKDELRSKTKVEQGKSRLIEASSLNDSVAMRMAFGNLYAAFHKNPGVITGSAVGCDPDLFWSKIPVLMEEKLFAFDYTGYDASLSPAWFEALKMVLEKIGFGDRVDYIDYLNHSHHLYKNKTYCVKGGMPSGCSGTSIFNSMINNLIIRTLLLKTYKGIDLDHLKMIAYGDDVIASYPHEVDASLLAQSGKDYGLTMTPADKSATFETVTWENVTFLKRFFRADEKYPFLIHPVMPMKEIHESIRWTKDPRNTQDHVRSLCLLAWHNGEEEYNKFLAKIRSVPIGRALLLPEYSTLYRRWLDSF
PV pol inh intensity: second read-out of PV pol inh, no call of its own (marks repeat the call); % elongation; measured here: total intensity read-out; formula for this scale not given here;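 total fluorescence in place of polarization; lower means less elongation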
Numbers without * were called inactive. Some of the compounds tested, so the mix of outcomes need not match the whole.

SMILES | PV pol inh | PV pol inh intensity
COc1ccc(N2CCN(C(=O)c3cnn(-c4ccc(F)cc4)c3-n3cccc3)CC2)cc1 | 112.0 | 111.0
Cc1ccc(S(=O)(=O)C(CNC(=O)C(=O)NCc2ccccc2C)c2cccs2)cc1 (centres undefined) | 105.0 | 116.0
O=C(NCc1nc2ccccc2[nH]1)c1cccc(Cl)c1 | 108.0 | 112.0
CCOC(=O)C1CCN(C(=O)c2ccc(NC(=O)c3nsc4ccccc34)cc2)CC1 | 106.0 | 99.0
Cc1ccc(-n2c(=O)c3cccnc3n2CC(=O)Nc2ccc(C)cc2Cl)cc1 | 108.0 | 107.0
Cc1ccccc1OCC(=O)OCc1cc(=O)n2nc(C3CC3)sc2n1 | 112.0 | 112.0
O=C(Cc1csc2ccccc12)NCc1cccc(Br)c1 | 104.0 | 104.0
CCc1cccc(CC)c1NC(=O)C(Cc1ccccc1)NS(=O)(=O)c1cccc2nsnc12 (centres undefined) | 107.0 | 105.0
CCOc1ccc(Cn2c(-c3ccc(OCC)c(OC)c3)nc3ccccc32)cc1OC | 101.0 | 106.0
CCN(CC)c1cc(C)nc2nc(-c3ccc(C)cc3)nn12 | 109.0 | 113.0
CC(C)(C)C(=O)NCC(c1ccc2c(c1)OCO2)N1CCOCC1 (centres undefined) | 109.0 | 112.0
CCN(C(=O)c1cc(S(=O)(=O)N2CCCCC2)c[nH]1)c1ccc(OC)cc1 | 107.0 | 110.0
COc1ccc(Cn2c(=O)[nH]c3cc(C(=O)NCCC(C)C)ccc3c2=O)cc1 | 103.0 | 105.0
Cc1ccc(Cl)cc1NC(=O)/C(C#N)=C/c1c(C)n(Cc2ccccc2)c2ccccc12 | 108.0 | 115.0
CCOc1ccc(C2=NC(c3cccs3)=Nc3ccc(CC)cc3N2)cc1OCC | 108.0 | 109.0
Cc1ccccc1CN1C(=O)c2ccccc2S(=O)c2ccc(C(=O)NCc3ccc4c(c3)OCO4)cc21 (centres undefined) | 105.0 | 105.0
CCCC(=O)Nc1cccc(-c2nc3cc(C)c(C)cc3o2)c1C | 105.0 | 106.0
Cc1ccc(-n2nc(C)c3c(C)cc(=O)n(CC(=O)NC(C)c4ccccc4)c32)cc1 (centres undefined) | 112.0 | 105.0
Cc1cc(NC(=O)c2ccc3c(c2)N(Cc2cccc(Cl)c2)C(=O)c2ccccc2S3(=O)=O)ccc1Br | 102.0 | 103.0
Cc1ccc(C)c(N2CCN(S(=O)(=O)c3ccc(-c4cc(C(F)(F)F)on4)s3)CC2)c1 | 103.0 | 108.0
Cc1ccc2nc(COc3ccccc3NC(=O)c3ccccc3C)cc(=O)n2c1 | 110.0 | 116.0
COc1ccc(N2CCN(Cc3nc4c(c(=O)[nH]c(=O)n4C)n3Cc3ccccc3C)CC2)cc1 | 106.0 | 106.0
Cc1cccc(Oc2nc3c(c(=O)n(C)c(=O)n3C)n2Cc2ccccc2)c1C | 113.0 | 115.0
CCN(C(=O)C1CCCN(c2ncnc3onc(-c4ccc(F)cc4)c23)C1)c1ccccc1 (centres undefined) | 101.0 | 95.0
CCOc1ccc(-n2nc(CO)c(C(=O)NCC(C)O)n2)cc1 (centres undefined) | 103.0 | 100.0

(further entries)
SMILES | PV pol inh | PV pol inh intensity
CCOc1ccc(OCC(=O)Nc2ccc(S(=O)(=O)Nc3cc(C)on3)cc2)cc1 | 107.0 | 107.0
CCC(=O)Nc1ccc2nc(SCCOc3ccccc3)sc2c1 | 99.0 | 104.0
O=C1Cc2cc(S(=O)(=O)Nc3cccc(C(F)(F)F)c3)cc3c2N1CCC3 | 104.0 | 111.0
CC(=O)c1ccc(NC(=O)COc2ccccc2-c2nc(-c3cccc(C)c3)no2)cc1 | 109.0 | 117.0
CCOc1ccc(-n2nc3ccc(NC(=O)COc4ccccc4)cc3n2)cc1 | 103.0 | 109.0
CCOc1ccc(-c2nnc(SCC(=O)NCc3ccc(C)cc3)nc2-c2ccc(OCC)c(OC)c2)cc1OC | 108.0 | 113.0
COc1ccc(OCC(=O)NC(Cc2c[nH]c3ccccc23)C(=O)O)cc1 (centres undefined) | 105.0 | 110.0
Cc1ccc(Cl)cc1N1CCN(C(=O)CCC(=O)Nc2ccc3nc(N4CCC(C)CC4)cc(C)c3c2)CC1 | 106.0 | 105.0
Oc1ccccc1-c1nc(/C=C/c2ccccc2)nn1-c1ccccc1 | 105.0 | 104.0
Cc1ccc(CSc2nc3c([nH]c4ccccc43)c(=O)n2C)cc1 | 108.0 | 112.0
CC1(C)CC(=O)c2cc(C(=O)Nc3ccc(Br)cc3)c(=O)[nH]c2C1 | 100.0 | 107.0
CCOc1ccc2nc(NC(=O)c3cccn(Cc4ccccc4Cl)c3=O)sc2c1 | 108.0 | 105.0
COc1ccc(C)cc1NC(=O)NCc1ccc2c(c1)CCN2C(=O)c1ccccc1 | 110.0 | 104.0
CCc1c(C)sc2c1CCN(C(=O)Nc1cc(OC)c(OC)c(OC)c1)C2c1ccccc1 (centres undefined) | 107.0 | 115.0
Cc1noc(NS(=O)(=O)c2ccc(NC(=O)c3ccc(Br)cc3)cc2)c1C | 101.0 | 106.0
CCc1nc2c(cnn2-c2ccc(C)cc2)c(=O)n1Cc1ccccc1 | 107.0 | 105.0
Cc1cc(C)c2nc(N3CCCC(C(=O)NCc4cccc(Cl)c4)C3)sc2c1 (centres undefined) | 106.0 | 109.0
Cn1cc(-c2cc3n(n2)CCC(=O)N3CC(=O)NCc2ccc(Cl)cc2)c2ccccc21 | 103.0 | 103.0
Cc1ccccc1C(=O)OCc1cc(=O)n2nc(-c3cccs3)sc2n1 | 98.0 | 97.0
COc1ccc(OC)c(NC(=O)Cn2c(=O)c3cccn3c3ccccc32)c1 | 105.0 | 114.0
CCC(Sc1nncn2c1cc1sccc12)C(=O)Nc1cccc(OC)c1 (centres undefined) | 107.0 | 107.0
CCOC(=O)c1cnc2c(C)cc(C)cc2c1Nc1ccccc1OCC | 102.0 | 104.0
CCOc1ccc(NC(=O)N2CCC(n3c(C)nc4cccnc43)CC2)cc1 | 108.0 | 108.0
CCOc1ccccc1NC(=O)CN(C)S(=O)(=O)c1ccc(C(=O)N2CCOCC2)s1 | 105.0 | 108.0
Cc1cccc2c(=O)cc(CSc3ccccc3NC(=O)C(C)(C)C)[nH]c12 | 96.0 | 92.0

Whole records, quoted from the list. Screens in order: PV pol inh	PV pol inh intensity
Record of O=C1Cc2cc(S(=O)(=O)Nc3cccc(C(F)(F)F)c3)cc3c2N1CCC3 → 104.0	111.0
Record of Cc1ccc(CSc2nc3c([nH]c4ccccc43)c(=O)n2C)cc1 → 108.0	112.0
Record of Oc1ccccc1-c1nc(/C=C/c2ccccc2)nn1-c1ccccc1 → 105.0	104.0
Record of CCOC(=O)c1cnc2c(C)cc(C)cc2c1Nc1ccccc1OCC → 102.0	104.0
Record of Cc1ccccc1C(=O)OCc1cc(=O)n2nc(-c3cccs3)sc2n1 → 98.0	97.0

Next section:
SMILES | PV pol inh | PV pol inh intensity
CCN(CC)S(=O)(=O)c1ccc2c(c1)c(=O)c(C(=O)NCc1ccc(Cl)cc1)cn2C | 104.0 | 107.0
Cc1ccc(CNC(=O)C(C)n2c(=O)cc(-c3ccccc3)c3c(C)nn(C)c32)cc1 (centres undefined) | 105.0 | 108.0
Cc1ccccc1C(=O)Nc1cccc(C(=O)OCc2cc(=O)n3ccsc3n2)c1 | 102.0 | 108.0
O=C(NCc1ccc2c(c1)OCO2)c1ccc2c(c1)N(Cc1ccccc1F)C(=O)c1ccccc1S2=O (centres undefined) | 108.0 | 110.0
Cn1cnc(S(=O)(=O)N2CCC(C(=O)NCc3ccccc3)CC2)c1 | 102.0 | 106.0
Cc1ccc(Nc2c(-c3ccc(Br)o3)nc3ccccn23)cc1 | 102.0 | 104.0
Cc1ccc(CNC(=O)CCCn2c(=O)c3sccc3n(CC(=O)Nc3c(C)cccc3C)c2=O)cc1 | 109.0 | 114.0
Cc1cccc2sc(N(Cc3cccnc3)C(=O)COc3ccccc3)nc12 | 103.0 | 108.0
COc1cc(NC(=O)c2cc(-c3ccc4c(c3)OCO4)on2)cc(OC)c1OC | 108.0 | 108.0
CCN1C(=O)N(c2ccc(C(C)=O)cc2)S(=O)(=O)c2ccccc21 | 109.0 | 103.0
Cc1ccc(CNS(=O)(=O)c2ccc(-c3cnc(C4CC4)o3)cc2)cc1 | 97.0 | 100.0
CCN(Cc1ccccc1)C(=O)CCS(=O)(=O)c1cc(Br)cc2c1N(C(=O)C1CC1)CC2 | 103.0 | 108.0
CCc1nn(CC(=O)NCc2cccc(OC)c2OC)c(=O)c2cc3occc3n12 | 109.0 | 110.0
Cn1c(=O)c2c(SCC(=O)N3CCc4ccccc43)nc(-c3cccc(F)c3)nc2n(C)c1=O | 111.0 | 108.0
Cc1cccc(C)c1Nc1c(-c2ccc(Cl)s2)nc2ncccn12 | 110.0 | 112.0
Cc1ccccc1Nc1c(-c2cccnc2)nc2cccc(C)n12 | 108.0 | 109.0
COc1cc(C2CC(=O)Nc3ccc4ccccc4c32)ccc1OC(=O)C(C)C (centres undefined) | 105.0 | 109.0
COc1ccccc1CNC(=O)Cn1c(=O)nc(-c2ccccc2)c2ccccc21 | 106.0 | 108.0
COc1ccc(C)cc1NC(=O)C(=O)NCC(c1cccnc1)N1CCN(c2ccccc2F)CC1 (centres undefined) | 109.0 | 113.0
CCOc1ccccc1Nc1ccc2cc(S(=O)(=O)N3CCCCC3)ccc2n1 | 115.0 | 114.0
Cc1ccc(CSc2nc(=O)c3c(C)cc(C)nc3n2C2CC2)cc1 | 107.0 | 97.0
CCc1ccc(NC(=O)CSc2nc(-c3cccc(OC)c3)nc3c2Cc2c(CO)cnc(C)c2O3)cc1 | 100.0 | 101.0
COc1ccc(OCC(=O)N(Cc2cccs2)c2ccc(OC)cc2)cc1 | 108.0 | 110.0
CCOC(=O)c1c(C)n(-c2ccccc2)c2ccc(OC(=O)c3cccc(Cl)c3)cc12 | 107.0 | 113.0
CCc1ccc(S(=O)(=O)c2cn(Cc3ccccc3F)c3cc(OC)c(OC)cc3c2=O)cc1 | 102.0 | 106.0

Sorted by molecular weight (falling): some entries from above
SMILES | PV pol inh | PV pol inh intensity
CCN(Cc1ccccc1)C(=O)CCS(=O)(=O)c1cc(Br)cc2c1N(C(=O)C1CC1)CC2 | 103.0 | 108.0
CCc1nn(CC(=O)NCc2cccc(OC)c2OC)c(=O)c2cc3occc3n12 | 109.0 | 110.0
COc1ccc(OCC(=O)N(Cc2cccs2)c2ccc(OC)cc2)cc1 | 108.0 | 110.0

Next section.
SMILES | PV pol inh | PV pol inh intensity
Cn1nc(-c2ccc(C(=O)Nc3ccc(F)cc3)cc2)c2ccccc2c1=O | 104.0 | 105.0
CCOc1ccc2nc(Cl)c(C3CC(c4ccc(C)cc4)=NN3C(=O)CCC(=O)O)cc2c1 (centres undefined) | 104.0 | 105.0
NC(=O)c1nn2c(C(F)(F)F)cc(-c3ccc(Br)cc3)nc2c1Cl | 105.0 | 111.0
O=C(CSc1nc2c(oc3ccccc32)c(=O)[nH]1)Nc1cccc(Cl)c1 | 101.0 | 102.0
O=C(O)CCCC(=O)N1CCc2cc(S(=O)(=O)NCc3ccccc3)ccc21 | 99.0 | 100.0
Cc1ccc(S(=O)(=O)N2CCCc3cc(NC(=O)c4ccc(C(C)(C)C)cc4)ccc32)cc1 | 111.0 | 99.0
CCOc1ccc(CNC(=O)c2ccc(NC(=O)N3CCSc4ncccc43)cc2)cc1 | 113.0 | 107.0
COc1cc(OC)cc(N2C(=O)N(Cc3ccc(C(C)(C)C)cc3)c3ccccc3S2(=O)=O)c1 | 111.0 | 117.0
COCCCNc1nc2c(-c3ccccc3)nnn2c2ccccc12 | 102.0 | 102.0
CCc1cccc(NC(=O)Cn2nc(CC)n3c(cc4cc(C)ccc43)c2=O)c1 | 109.0 | 108.0
Cc1cc(=O)n(C(C)C(=O)N2CCCc3ccccc32)c2c1c(C)nn2-c1ccccc1 (centres undefined) | 101.0 | 97.0
NS(=O)(=O)c1ccc(CCNC(=O)c2ccc3nc(CCc4ccccc4)oc3c2)cc1 | 107.0 | 107.0
CCCc1cc(=O)oc2cc(C)c3c(-c4ccccc4)coc3c12 | 109.0 | 112.0
Fc1cccc(-c2nnn3c2nc(NC2CCCCC2)c2ccccc23)c1 | 107.0 | 111.0
CC(C)(C)c1ccc(C(=O)N2CCC(c3nc4ccccc4o3)CC2)cc1 | 99.0 | 102.0
CC(C)c1ccc(NC(=O)c2cc(S(=O)(=O)NCCC3=CCCCC3)ccc2F)cc1 | 110.0 | 114.0
CC(=O)Nc1cccc(NC(=O)c2cc3c(=O)n4cccc(C)c4nc3n2C)c1 | 111.0 | 107.0
COc1ccc(N2CCN(C(=O)c3cnc(SC)nc3C)CC2)cc1 | 107.0 | 114.0
CCOc1ccc(C(=O)Nc2ccc(S(=O)(=O)Nc3nc(C)cc(C)n3)cc2)cc1OC | 110.0 | 111.0
CN(C)c1ccc(NC(=O)CN2CCN(CC(=O)Nc3ccc(Br)cc3)CC2)cc1 | 104.0 | 108.0
CSc1cccc(NC(=O)Cn2ncn3c(cc4ccccc43)c2=O)c1 | 117.0 | 128.0
CCC(CC)C(=O)Nc1cccc(-c2nc3cccnc3s2)c1C | 106.0 | 99.0
COc1cccc(Cn2cc(S(=O)(=O)c3ccc(C)cc3)c(=O)c3cc4c(cc32)OCO4)c1 | 99.0 | 100.0
COc1ccc(CNC(=O)CCc2c(C)nn(-c3ccc(N4CCCCC4)nn3)c2C)cc1 | 103.0 | 105.0

Quoted at random: 2 records from the list, in no set order.
SMILES | PV pol inh | PV pol inh intensity
Cc1ccc(C)c(N2CCN(S(=O)(=O)c3ccc(-c4cc(C(F)(F)F)on4)s3)CC2)c1 | 103.0 | 108.0
Cn1c(=O)c2c(SCC(=O)N3CCc4ccccc43)nc(-c3cccc(F)c3)nc2n(C)c1=O | 111.0 | 108.0
